Assay outcomes as filed in PubChem BioAssay.
Sa ugtP lethal: compounds lethal to S. aureus RN4220 ugtP deletion mutant. OD600 growth, 16 h; some inactives read as strong as hits. growth inhibition, % (test concentration not listed). actives 0.54% (n = 330,000). AID 1259309;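 active = z-score under -3 and OD600 up to 0.15 on both plates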;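 note: plate controls were untreated wells for no effect and antibiotic for full effect; wells of about 80 µL received 100 nL stock; the first replicate is given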
BJeLR viability: kills HRASV12-expressing BJeLR cells | BJeLR (HRASV12) viability, CellTiter-Glo ATP luminescence, 48 h; reference of the scale not given here | inhibition, % (no concentration beside the values) | actives 0.17% (n = 300,000) | AID 1554;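 active = replicate mean above 50%; inconclusive = above 50% but judged a plate artefact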;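 note: 50 nL library stock added to about 25 µL; numbers are from one replicate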
PrP UTR inh: inhibition of PrP 5' UTR reporter expression; cell-based PrP 5' UTR mRNA reporter, plate reader; inhibition, % (test concentration not listed); actives 0.35% (n = 340,000); AID 488862;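 active = every replicate at 50% or more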;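 note: 0 = median of the neutral control wells; tested in H4 reporter cells; numbers are from one replicate; inactives centre near -14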
Autofluor counter: compound fluorescence in toxin protease inhibitor counterscreen; compound autofluorescence counterscreen, microsphere flow cytometry; stronger effect = higher value; fluorescence intensity (concentration not given with the values); actives 3.1% (n = 360,000); AID 624483;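 active = at least 3 SD above the mean of all compounds, about 16000 in these data; inconclusive = too few beads counted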;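 note: 100 nL of 1 mM stock went into each well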
Sa RN4220 lethal: kills Staphylococcus aureus RN4220 | S. aureus RN4220 growth, OD600, 16 h | inhibition, % (concentration not given with the values) | actives 0.33% (n = 330,000) | AID 1259311;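 active = z-score of -3 or lower and OD600 up to 0.18 on both plates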;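 note: plate controls were untreated cells for no effect and reference antibiotic for full effect; stock transfer was 100 nL into about 80 µL; one replicate is shown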
Mtb hypoxia inh: reduces hypoxia-regulated biosensor signal in M. tuberculosis. M. tuberculosis hypoxia-regulated fluorescent reporter, fluorescence. fluorescence inhibition, % (no concentration beside the values). actives 0.1% (n = 300,000). AID 1159583;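 active = 35 to 45% if threefold the growth effect, above 45% if 1.5-fold the growth effect; inactive = the rest, general growth blockers included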;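 note: wells of about 50 µL received 100 nL stock; 0% = vehicle wells and 100% = reference inhibitor wells; whole bacteria with a GFP reporter of the hypoxia response; strong numbers were not always called active; many hits fall short of the cut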
Mtb hypoxia inh growth: also measured in Mtb hypoxia inh; calls as there; growth inhibition, %; measured here: M. tuberculosis growth (absorbance);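 0% = vehicle and 100% = reference antibiotic; read after six days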
* marks the source's active call; other numbers are inactive results; ? = inconclusive; nt = no result given; & = joins results of further samples.

SMILES	Sa ugtP lethal	BJeLR viability	PrP UTR inh	Autofluor counter	Sa RN4220 lethal	Mtb hypoxia inh	Mtb hypoxia inh growth
O=C(Nc1ccc2c(c1)CCC2)Nc1ccc(F)cc1F	4	-1	-97	nt	4.5	-8	-1
COc1ccc(C(=O)OCC(=O)NCCCc2ccccc2)cc1OC	10	7	-26	3895	4.0	-11	0
Cc1noc(NC(=O)c2ccc(F)cc2)c1C#N	5	0	5	2143	5.0	nt	nt
Cc1cc(C)nc(N2N=C(c3ccccc3)CC2=O)n1	3	-12	-19	4257	-0.2	-7	-2
Cc1nn(-c2ccccc2)c(N2CCCC2)c1C=NNC(=O)C1CC1	2	nt	nt	nt	3.2	11	9
O=C(CCN1C(=O)c2ccccc2C1=O)OCN1C(=O)c2ccccc2C1=O	7	-3	-11	2600	0.7	nt	nt
CCCCn1c(N)c(N(CCOC)C(=O)c2ccc(NC3CC3)c([N+](=O)[O-])c2)c(=O)[nH]c1=O	12	-1	-3	4425	5.6	-3	-7
COc1ccc(C(=O)Nc2nnc(S(=O)(=O)Cc3ccccc3)s2)cc1	4	0	-12	4047	3.7	-3	-1
O=C1c2cccc3cc([N+](=O)[O-])cc(c23)C(=O)N1/N=C/c1ccc(O)cc1O	nt	6	-28	5410	nt	nt	nt
S=C(c1cn(Cc2ccc(Br)cc2)c2ccccc12)N1CCOCC1	nt	-1	-8	2026	nt	nt	nt
Cc1ccc(C)c(NC(=O)CS(=O)(=O)c2c[nH]c3ccccc23)c1	2	12	-6	8901	2.6	10	2
C[C@]12CCC(=O)C=C1CC[C@@H]1[C@@H]2CC[C@@]2(C)[C@H]1CC[C@]2(C)O	-8	nt	19	6370	7.6	nt	nt
Cc1ccccc1CNC(=O)C1CCC(=O)N(C2CC2)C1 (configuration not stated)	6	-14	-12	6079	4.4	-5	0
O=C(NC1CCCCC1)N1CCc2[nH]c3ccccc3c2C1	-9	-1	-18	5510	-4.0	nt	nt
O=C(Oc1ccc(OC(=O)C2CCC2)cc1)C1CCC1	8	0	-29	2389	-3.6	7	7
Nc1ccccc1Nc1cc(-c2ccccc2)nn1-c1ccccc1	-3	3	-20	1987	-3.7	-2	-19
COc1ccc(/C=N/N=C2/NC(=O)C(CC(=O)O)S2)cc1OCc1ccccc1Cl (configuration not stated)	nt	1	-23	2028	nt	nt	nt
CN(C(=O)CSc1nnc(C2CC2)n1-c1ccccc1)C1CCS(=O)(=O)C1 (configuration not stated)	-1	nt	-17	2823	-4.1	3	3
Ic1ccccc1CNC1C2CCN(CC2)C1C(c1ccccc1)c1ccccc1 (configuration not stated)	-30	nt	nt	nt	-2.2	nt	nt
CCC(=O)NC(=S)Nc1cccc(NC(=O)c2ccco2)c1	6	1	-23	4780	6.0	5	9
O=S(=O)(c1ccccc1)[C@@]1(c2ccccc2)C[C@@H]2ON=C(c3cccc(-c4ccccc4)c3)[C@@H]2C1	nt	-14	-16	3616	nt	nt	nt
CCc1cc2c(SCC(=O)NCC3CCCO3)ncnc2s1 (configuration not stated)	2	nt	-22	3369	0.9	-2	8
Cc1cc(C)c(C)c(OCCOCCN2CCN(C)CC2)c1	1	-1	-14	2428	1.8	9	2
Cc1ccc(-n2c(SCC(=O)NN=C/C=C/c3ccccc3[N+](=O)[O-])nc3ccccc3c2=O)cc1	-5	nt	nt	nt	3.8	-2	4
COc1cccc(CN2C(=O)CCC2(C)C(=O)NC2CCCCC2)c1 (configuration not stated)	-2	-8	6	4481	2.3	6	-4
CCn1c(=O)c2sccc2n2c(CCCC(=O)NCCc3ccc(S(N)(=O)=O)cc3)nnc12	3	5	-14	4456	0.6	0	0
O/C=c1\ccc2cccc3nc(C(F)(F)F)nc1c23	-8	-1	-17	6139	8.7	1	-5
COc1ccc(CNC(=S)Nc2ccccc2F)cc1	4	0	-9	4214	-2.7	-2	9
COc1ccc(NC(=O)CN2C(=O)COc3ccc(S(=O)(=O)N4CCOCC4)cc32)cc1	5	10	-26	4802	2.2	0	2
COc1ccccc1C(=O)Nc1ccc(-c2nnn(CC(=O)NCc3ccco3)n2)cc1	-7	-11	-11	4393	9.9	12	8
CCOC(=O)C1CCCN(C(=O)c2ccc3ncsc3c2)C1 (configuration not stated)	-8	nt	-16	2769	-4.4	3	2
Cc1cc(C)c(C(=O)CN2C(=O)C(=O)N(C3CCCC3)C2=O)cc1C	2	nt	-18	nt	8.8	12	9
COc1ccc(NC(=O)c2ccc(CN3CCc4ccccc4C3)cc2)cc1OC	7	0	-18	3168	3.5	7	9
O=C(NC1CCCC1)C(c1ccncc1)N(C(=O)Cc1cccs1)c1cccc(F)c1 (configuration not stated)	3	-4	-31	3588	1.5	4	2
N#Cc1sc(NCc2ccccc2)nc1Cl	3	-1	-6	2372	-0.1	14	0
NC(=NN=Cc1ccc([N+](=O)[O-])cc1)c1nonc1N	3	nt	nt	nt	3.5	-2	5
CC(C)CCNC(=O)COC(=O)/C=C/c1ccc2ccccc2n1	3	4	-9	4398	-7.7	19	7
NC(=O)CN1C(=O)NC2(CCOc3ccccc32)C1=O (configuration not stated)	4	-9	2	3135	0.9	8	-5
COc1ccc(CNC(=S)Nc2cccc(C)c2C)cc1	11	-2	-5	4561	0.5	nt	nt
O=C(Nc1ccc(Br)cc1)C1CC(O)CN1C(=O)OCc1ccccc1 (configuration not stated)	-11	-3	-12	5478	-1.3	-8	9
COc1ccccc1CN(C)C(=O)c1ccc(S(=O)(=O)Nc2c(C)n(C)n(-c3ccccc3)c2=O)cc1	-3	nt	10	3755	4.1	-20	5
CC(=O)/C(=N\Nc1ccc(Cl)cc1Cl)Sc1nnc(-c2ccccc2)n1-c1ccccc1	nt	-19	-25	2222	nt	nt	nt
C1CNCCOCCNCCN1	-4	-4	-12	4298	-6.2	-2	5
COc1ccc(CNC(=O)C(C#N)c2nc3ccccc3nc2N2CCCC2)cc1 (configuration not stated)	nt	-9	-16	2682	nt	nt	nt
CCC1CCCCN1C(=O)CSc1nc2c(cnn2-c2ccc(C)cc2)c(=O)[nH]1 (configuration not stated)	-8	-2	-18	5839	3.2	-2	1
O=C(COC(=O)c1cc(-c2cccs2)nn1-c1ccccc1)Nc1ccc(F)c([N+](=O)[O-])c1	-4	5	-6	2019	-2.2	-6	3
COc1ccc(-n2nc(C(=O)NCC(=O)NCC3CCCO3)c3ccccc3c2=O)cc1 (configuration not stated)	11	2	-3	15816	6.5	0	-5
COc1ccc(-c2nc(CSCC(=O)NCc3ccc4c(c3)OCO4)c(C)o2)cc1OC	2	-11	-13	4507	-9.9	3	9

Some of these compounds in order of SMILES length, high to low:
SMILES	Sa ugtP lethal	BJeLR viability	PrP UTR inh	Autofluor counter	Sa RN4220 lethal	Mtb hypoxia inh	Mtb hypoxia inh growth
COc1ccccc1CN(C)C(=O)c1ccc(S(=O)(=O)Nc2c(C)n(C)n(-c3ccccc3)c2=O)cc1	-3	nt	10	3755	4.1	-20	5
O=C(COC(=O)c1cc(-c2cccs2)nn1-c1ccccc1)Nc1ccc(F)c([N+](=O)[O-])c1	-4	5	-6	2019	-2.2	-6	3
CC(=O)/C(=N\Nc1ccc(Cl)cc1Cl)Sc1nnc(-c2ccccc2)n1-c1ccccc1	nt	-19	-25	2222	nt	nt	nt
COc1ccc(-n2nc(C(=O)NCC(=O)NCC3CCCO3)c3ccccc3c2=O)cc1 (configuration not stated)	11	2	-3	15816	6.5	0	-5
CCC1CCCCN1C(=O)CSc1nc2c(cnn2-c2ccc(C)cc2)c(=O)[nH]1 (configuration not stated)	-8	-2	-18	5839	3.2	-2	1
Cc1cc(C)c(C(=O)CN2C(=O)C(=O)N(C3CCCC3)C2=O)cc1C	2	nt	-18	nt	8.8	12	9
COc1ccc(CNC(=O)C(C#N)c2nc3ccccc3nc2N2CCCC2)cc1 (configuration not stated)	nt	-9	-16	2682	nt	nt	nt
COc1ccc(NC(=O)c2ccc(CN3CCc4ccccc4C3)cc2)cc1OC	7	0	-18	3168	3.5	7	9
O=C(Nc1ccc(Br)cc1)C1CC(O)CN1C(=O)OCc1ccccc1 (configuration not stated)	-11	-3	-12	5478	-1.3	-8	9
CC(C)CCNC(=O)COC(=O)/C=C/c1ccc2ccccc2n1	3	4	-9	4398	-7.7	19	7
NC(=O)CN1C(=O)NC2(CCOc3ccccc32)C1=O (configuration not stated)	4	-9	2	3135	0.9	8	-5
COc1ccc(CNC(=S)Nc2cccc(C)c2C)cc1	11	-2	-5	4561	0.5	nt	nt
N#Cc1sc(NCc2ccccc2)nc1Cl	3	-1	-6	2372	-0.1	14	0
C1CNCCOCCNCCN1	-4	-4	-12	4298	-6.2	-2	5

Other compounds:
SMILES	Sa ugtP lethal	BJeLR viability	PrP UTR inh	Autofluor counter	Sa RN4220 lethal	Mtb hypoxia inh	Mtb hypoxia inh growth
O=C(CN1C(=O)NC2(CCCc3ccccc32)C1=O)Nc1cc(F)ccc1F (configuration not stated)	10	3	13	?	2.3	4	-6
O=C(CSc1ccc(-c2ccc(-n3cccn3)cc2)nn1)Nc1ccccc1F	2	2	-36	5046	6.2	5	-2
Cc1cc(C2C(C#N)=C(N)OC3=C2C(=O)CC(C)(C)C3)c(C)s1 (configuration not stated)	38	-1	-18	2928	7.7	11	11
Nc1nonc1-n1nnc(C(=O)N/N=C/c2cccc(F)c2)c1-c1ccc2c(c1)OCO2	nt	-3	-10	5518	nt	nt	nt
O=C(N/N=C/c1ccc(O)cc1O)c1ccc(NC(=O)C2CCCCC2)cc1	nt	13	-8	4739	nt	nt	nt
O=C(COC(=O)c1cccc(S(=O)(=O)N2CCN(c3ccc(F)cc3)CC2)c1)NCC1CCCO1 (configuration not stated)	6	0	-22	5489	15	-9	-4
COC(=O)c1ccc(NS(=O)(=O)c2ccc3c(c2)oc(=O)n3C)cc1	16	8	-4	4432	1.2	nt	nt
Cc1cc(C)cc(NC(=O)CCNS(=O)(=O)c2ccc3c(c2)oc(=O)n3C)c1	1	13	-17	12998	5.3	13	2
CC(C)(C)NC(=O)C(c1ccncc1)N(C(=O)c1csnn1)C1CC1 (configuration not stated)	0	-12	-10	4727	-1.3	-7	-5
CC1=NC(=O)C(N=Nc2ccccc2C(=O)O)N1c1ccccc1 (configuration not stated)	16	-6	-19	4776	15	12	0
CCC(=O)N(CCc1ccccc1C)Cc1cc2cc3c(cc2[nH]c1=O)OCO3	-8	-4	-11	?	-9.4	0	-1
N#Cc1c(-c2ccc(Br)cc2)nc2n(c1=O)CCCS2	-2	-2	nt	6106	-0.2	7	6
COc1cc2nc(N3CCN(C(=O)C4CCCO4)CC3)nc(N)c2cc1OC (configuration not stated)	5&9&-3	-9&-2	-2&-3	4483&6104	4.2&5.2&2.4	7&2&-12	2&7&3
COc1ccc(NC(=O)CN(C)C(=O)c2cc(S(=O)(=O)N(C)C)ccc2N2CCCC2)cc1	12	6	-9	4747	6.2	-4	-13
Cc1ccc(C(=O)N/C(=C/c2ccc(Cl)cc2)C(=O)Nc2cccc(C(=O)O)c2)cc1	14	-11	-22	2510	-0.4	1	1
CCNC(=O)N(C)c1nncnc1C(=O)NC	-1	-2	-14	5504	4.0	5	9
Cc1ccc(S(=O)(=O)C2CCOC2=O)cc1 (configuration not stated)	11	-1	-24	3805	-2.0	2	-4
CCCN1CCc2cc(O)cc3c2C1Cc1ccc(O)c(O)c1-3 (configuration not stated)	-10	nt	nt	nt	7.2	9	-4
CC(/C=C/c1ccccc1)=N\Nc1ccccc1[N+](=O)[O-]	nt	-1	-49	2128	nt	nt	nt
COCCn1c(SCC(=O)Nc2ccc(Cl)cn2)nnc1-c1ccncc1	3	nt	2	4302	9.6	-1	1
